OX1R antag-1 – human HCRTR1 antagonism. O43613. CHO/OX1R cells, Fluo-8 calcium fluorescence, orexin A. inhibition, % at 5 µM. actives 0.43% (n = 330,000). AID 434989;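 active means inhibition above its plate's threshold, mean inhibition of all tested compounds on the plate plus 3 SD, cut at about 37% in these data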;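 further: 0% = orexin A challenge wells and 100% = SB-334867-A antagonist wells; not every result past the cut was called active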
Target sequence (O43613 whole entry, looked up): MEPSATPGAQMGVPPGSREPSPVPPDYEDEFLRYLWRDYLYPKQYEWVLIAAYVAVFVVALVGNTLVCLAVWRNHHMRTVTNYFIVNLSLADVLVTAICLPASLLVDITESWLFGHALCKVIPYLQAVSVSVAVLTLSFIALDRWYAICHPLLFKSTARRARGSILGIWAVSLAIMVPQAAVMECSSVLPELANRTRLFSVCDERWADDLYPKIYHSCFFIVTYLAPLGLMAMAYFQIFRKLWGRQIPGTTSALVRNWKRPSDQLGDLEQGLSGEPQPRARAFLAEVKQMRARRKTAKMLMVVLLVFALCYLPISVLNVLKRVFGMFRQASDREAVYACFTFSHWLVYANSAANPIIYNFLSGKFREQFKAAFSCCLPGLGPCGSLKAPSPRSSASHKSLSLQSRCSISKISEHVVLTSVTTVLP
OX1R antag-2 – OX1R (human) antagonism | O43613 | OX1R-expressing cells, FRET antagonist read-out | inhibition, % at 6.6 µM | actives 1.8% (n = 330,000) | AID 485270; in the data active means inhibition mostly above about 38%, no sharp cut-off; inactive means mostly below about 40%;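 further: 0% = agonist challenge alone and 100% = reference antagonist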
* hit, by the source's call. These rows are one share of the data; most or all hits stand in other tables.

Compound | OX1R antag-1 | OX1R antag-2
Cc1ccc(CN2CCCN(C)CC2)c(C)c1 | 0.9 | 9.3
O=C(Cn1cnc2ccccc21)Nc1ccc(F)c(F)c1 | -3.1 | 17.3
COc1ccccc1CNC(=O)C(CC(C)C)NC(=O)C1CCC(C)CC1 (stereo not given) | -36.5 | 12.3
CCN(CC)C(=O)CSc1nnc(-c2ccco2)o1 | -9.2 | 8.3
Cc1nonc1-c1ccc2c(c1)OCO2 | -5.7 | 10.1
CCOC(=O)Cn1nc(C)c(-c2ccccc2)c1N | -12.4 | 8.6
O=C(c1scc2c1CCCC2)N1CCOCC1 | -3.2 | 27.1
c1cnc2c(SCc3ccc(-c4nnco4)cc3)cccc2c1 | -23.2 | 28.9
Cc1oc2c(CN3CCCC3)c(O)ccc2c(=O)c1-c1ccccc1 | -29.0 | 7.4
Cc1ccc(CN2CC(C(=O)Nc3cc(S(C)(=O)=O)ccc3Cl)CC2=O)cc1 (stereo not given) | -18.5 | 17.3
CCn1cnc2c1c(=O)n(CC(=O)NCC(C)C)c(=O)n2Cc1ccccc1 | -15.7 | 2.6
COc1ccc(NS(=O)(=O)c2cn(C)cn2)cc1 | -2.3 | 7.0
CC(CC(=O)NCCc1ccc(Cl)cc1)S(=O)(=O)c1ccc2c(c1)NC(=O)CO2 (stereo not given) | -15.2 | -2.3
CC(C)NC(=S)N/N=C1\CCCCc2ccccc21 | -9.4 | 17.8
CN(C(=O)CSc1nnn(C)n1)c1ccccc1 | 5.8 | 13.0
CCC(CC)C(=O)N1CC(=O)Nc2ccc(C)cc2C1c1ccccc1 (stereo not given) | -24.7 | -6.0
CCOC(=O)c1cccc(NC(=O)C2(S(=O)(=O)c3ccc(Cl)cc3)CC2)c1 | -2.4 | 43.8
Cc1ccccc1N(Cc1ccccc1F)S(C)(=O)=O | -16.6 | 6.5
NS(=O)(=O)c1ccc(CCNC(=S)NC2CCCC2)cc1 | -9.1 | 12.2
c1ccc(OCCOCCN2CCc3ccccc3C2)cc1 | -26.5 | 4.8
Cc1ccc(C2=NN(C(=O)CSc3nccn3C)C(c3ccco3)C2)cc1 (stereo not given) | -10.6 | 24.1
CCOC(=O)C1=C(C)N(CCO)C(=O)NC1c1cccc(O)c1 (stereo not given) | -1.5 | -6.0
COCCNC(=O)CSc1ccc(-c2nc3ccccc3[nH]2)cn1 | -5.6 | 6.3
COCc1ccc(CN2CCCC(CO)(Cc3ccccc3C)C2)o1 (stereo not given) | -12.8 | 9.7
CCN(CC)C(=O)CSc1nc2ccccc2c(=O)n1OC | -12.8 | 6.4
COc1ccc(OC)c(C2C(C#N)=C(N)Oc3cc(C)n(Cc4ccccn4)c(=O)c32)c1 (stereo not given) | -5.9 | 3.9
CCCn1nc(C(=O)NCc2ccccn2)c2ccccc2c1=O | -23.7 | 18.8
CC(C)(C)c1nc2ccccc2c(=O)n1N1C(=O)c2ccccc2C1=O | -26.0 | 28.7
O=c1[nH]c2cccnc2n1Cc1ccco1 | -0.7 | 7.0
Cc1nn(CC(=O)N2CCC(C)CC2)c(=O)c2cccn12 | -7.6 | 9.3
COc1ccc(C2N(c3ccccc3)CCN2c2ccccc2)cc1O | -40.6 | 21.6
CC1(CO)COC(c2ccccc2)=N1 (stereo not given) | -5.5 | 16.7
COc1ccc2[nH]c(=O)c(COC(=O)c3cccs3)cc2c1 | -17.9 | 26.2
Cc1ccc(NC(=O)CSc2nnc(N)s2)cc1S(=O)(=O)N1CCCCC1 | -15.9 | 0.5
CCC(=O)N1CCCN(S(=O)(=O)c2ccc(C)cc2)C1c1ccc(OC)cc1 (stereo not given) | -23.8 | 25.0
O=C(CN1CCN(Cc2ccccc2Cl)C1=O)NCc1cccnc1 | -9.1 | -3.8
O=C(CCCCCn1c(=O)[nH]c2ccsc2c1=O)NCc1ccc(F)cc1 | -33.5 | 5.3
COc1ccccc1N=c1sc2ccccc2n1C | -15.1 | 4.4
COc1cccc(NC(=O)NC2CCN(Cc3nnnn3Cc3ccc4c(c3)OCO4)CC2)c1 | -2.1 | 8.1
COc1ccc(CC(=O)Nc2nc3ccccc3s2)cc1S(=O)(=O)N1CCOCC1 | -1.9 | 10.4

Looked up above:
NS(=O)(=O)c1ccc(CCNC(=S)NC2CCCC2)cc1 in OX1R antag-2 = 12.2
Cc1ccc(CN2CC(C(=O)Nc3cc(S(C)(=O)=O)ccc3Cl)CC2=O)cc1 (stereo not given) in OX1R antag-2 = 17.3
COc1ccc(OC)c(C2C(C#N)=C(N)Oc3cc(C)n(Cc4ccccn4)c(=O)c32)c1 (stereo not given) in OX1R antag-1 = -5.9
Cc1nonc1-c1ccc2c(c1)OCO2 in OX1R antag-2 = 10.1
CC1(CO)COC(c2ccccc2)=N1 (stereo not given) in OX1R antag-2 = 16.7

The listing continues:
Compound | OX1R antag-1 | OX1R antag-2
O=S(=O)(c1cnc[nH]1)N1CCCCCC1 | -10.3 | 4.2
CSc1ncccc1C(=O)NCCc1ccccc1 | -17.0 | 9.3
C=CCNC(=O)CCCOc1ccc(C)cc1 | -20.0 | 8.2
COC(=O)C1(CC2CC(c3ccncc3)=NO2)CCN(C(=O)OC(C)(C)C)CC1 (stereo not given) | -10.5 | 21.9
Cc1cccc(NC(=O)C2CCCC2)c1 | -11.7 | 13.3
CCOC(=O)c1sc(S(C)(=O)=O)c2c1CCc1conc1-2 | -2.9 | 21.5
COc1ccc(C2NC(=O)NC(O)(C(F)(F)F)C2C(=O)c2ccccc2)cc1OC (stereo not given) | 2.2 | 10.3
CC(=O)NC(CCS(C)(=O)=O)C(=O)Nc1nccs1 (stereo not given) | 4.8 | -3.8
CN(C(=O)c1cncc(Br)c1)c1c(N)n(Cc2ccccc2)c(=O)[nH]c1=O | -11.9 | 5.1
O=C(COc1ccccc1[N+](=O)[O-])N1CCN(C(=O)c2ccco2)CC1 | -6.5 | 33.1
Nc1c(Cl)c(Cl)nc(C(=O)N/N=C/c2cccnc2)c1Cl | -30.9 | 30.4
Cc1cc(C(=O)CSc2nnc(-c3cccnc3)n2-c2ccccc2F)c(C)n1C | -9.8 | 7.7
COc1ccc(CNC(=O)C(OC(=O)c2ccco2)c2ccccc2)cc1 (stereo not given) | -17.2 | 30.1
Fc1ccccc1OCCCCCCN1CCCC1 | -17.1 | 1.0
C/C(CCc1ccc2c(c1)OCO2)=N\NC(=O)c1ccccc1Cl | -10.3 | 13.2
COc1ccccc1C(=O)NCC(=O)N/N=C/c1ccncc1 | -11.6 | 15.9
CCO/N=C/C(=O)Nc1ccc(F)cc1F | -7.6 | 10.5
C=CCCCCCCCC(=O)OC | 0.5 | 10.6
O=C(NCCc1ccccc1)c1c[nH]c2c(F)cccc2c1=O | -12.1 | 9.0
COc1ccc(CC(=O)OCn2nnc3ccccc3c2=O)cc1 | -16.9 | 12.4
COc1cccc(C(=O)CN2C3=NCCCN3c3ccccc32)c1 | -17.4 | 47.0
Cn1cc(SCC(=O)N2CCOCC2)c2ccccc21 | 7.3 | -8.6
Cc1cccc2cncc(OCc3nnc(SC(F)F)n3C)c12 | -37.8 | 12.0
CCOc1ccc(NCCC#N)cc1 | -11.3 | 24.2
O=C(COC(=O)C1CCN(c2ccc(C(F)(F)F)cn2)CC1)Nc1ccc(F)cc1[N+](=O)[O-] | -33.6 | 41.3
Cc1cc(F)c(F)c(C(=O)N2CCCCC2C)c1Cl (stereo not given) | -5.5 | 23.5
O=C(c1cccc(Br)c1)N1CCN(c2ccccn2)CC1 | -16.5 | 2.4
COc1cc(OC)cc(C(=O)N2CCC(C(=O)Nc3ccc4c(c3)OCCO4)CC2)c1 | -1.4 | -2.7
O=C(OCC1OC2C(Oc3nc(=O)ccn32)C1O)c1ccccc1 (stereo not given) | 1.5 | 6.3
COc1ccccc1NC(=O)COc1ccc2ccccc2c1 | -8.8 | 6.3
O=C(O)c1cc(S(=O)(=O)N2CCCCCC2)c(Cl)cc1Cl | 2.8 | 9.7
CC(=O)N1Cc2ccccc2CC1C(=O)N1CCN(c2ccccc2)CC1 (stereo not given) | -10.4 | 24.0
COC(=O)c1ccccc1NC(=O)NCCc1ccccc1OC | -29.8 | 26.2
CCN(CCO)C(=O)CC1C(=O)NCCN1Cc1c(F)cccc1Cl (stereo not given) | -7.3 | 17.3
CC(C)N(C#N)c1nc(N2CCOCC2)nc(N2CCOCC2)n1 | -10.8 | 34.0
Cc1ccc(C(=O)NC(=S)Nc2ccccc2N2CCOCC2)cc1C | -26.6 | 31.9
CCOc1ccc(NC(=O)Cc2cccc3ccccc23)c([N+](=O)[O-])c1 | -38.9 | 10.8
CCOC(=O)C1CCCN(C(=O)c2ccccc2Oc2ccccc2)C1 (stereo not given) | -15.4 | 18.4
CC(Oc1ccc(F)cc1)C(=O)N(CCC1=CCCCC1)c1c(N)n(Cc2ccccc2)c(=O)[nH]c1=O (stereo not given) | -24.6 | 5.8
COc1ccc(NC(=O)c2cccnc2C(=O)O)c(OC)c1 | 9.9 | 11.1
CN1CCN(C(=O)C2=C[C@H](C3CCCCC3)C[C@H](OCc3ccc(CO)cc3)O2)CC1 | -21.2 | 18.1
C(=NCCCN1CCOCC1)c1ccc2c(c1)OCO2 | 20.5 | 10.6
CN(c1ccc(C(=O)NCc2cccnc2)cc1)S(C)(=O)=O | -8.1 | 9.8
CSc1ccccc1NC(=O)Nc1ccc(Cl)cc1 | -2.1 | 22.6
N#Cc1cnc(SCCc2ccccc2)nc1N | -18.7 | 8.2
COc1ccc(S(=O)(=O)NCC2CCCN(C(=O)c3occc3C)C2)cc1 (stereo not given) | -27.5 | 4.0
Cc1cc2c(cc1S(=O)(=O)CCC(=O)N1CC(C)CC(C)C1)OCC(=O)N2 (stereo not given) | -15.7 | 7.3
O=C(NC1CCCCC1)C(c1ccncc1)N(C(=O)c1csnn1)c1ccccc1 (stereo not given) | -12.1 | 10.0
Nc1ccc2nc[nH]c2c1 | -5.6 | 3.3
COc1ccc(/C=N/NC2=NS(=O)(=O)c3ccccc32)cc1 | -4.6 | 3.4
OCCN1CCOCCOCCN(CCO)CCN(CCO)CC1 | -20.7 | 3.5
C#CCCOC(=O)N1C2=NC(C(=O)OC)=C(C(=O)OC)[C@@H]3N(C)c4ccc(OC)cc4[C@]23C[C@H]1C(=O)OC | -28.8 | 15.4
O=C(O)c1c2c(nc3ccccc13)/C(=C/c1ccccc1[N+](=O)[O-])CCC2 | -19.2 | 8.5
Cc1ccc(-c2nc(S(=O)(=O)c3ccc(C)cc3)c(SCC(N)=O)o2)cc1 | -14.3 | 11.8
CN(C)S(=O)(=O)c1cc(NC(=O)c2cc(=O)[nH]c3ccccc23)ccc1Cl | -23.4 | 24.6
CCn1nc(C)c(CNC(=O)Nc2ccc3c(c2)OCO3)c1C | -44.9 | 5.1
COc1cc(/C=N/NC(=O)c2ccncc2)ccc1OCCN1CCCCC1 | 2.4 | 11.1
COC(=O)C1CCN(c2cc(=O)n(Cc3ccc(F)cc3)c(=O)[nH]2)CC1 | -16.6 | 14.4
COCC(C)NC(=O)c1cc(-c2ccc(OC)c(OC)c2)on1 (stereo not given) | -2.5 | 4.7
CCOc1ccccc1-n1c(N)c(C(N)=O)sc1=S | -2.2 | 12.2

Three compounds picked at random from the list so far, as already listed:
Compound | OX1R antag-1 | OX1R antag-2
CSc1ccccc1NC(=O)Nc1ccc(Cl)cc1 | -2.1 | 22.6
Cc1cc2c(cc1S(=O)(=O)CCC(=O)N1CC(C)CC(C)C1)OCC(=O)N2 (stereo not given) | -15.7 | 7.3
CN1CCN(C(=O)C2=C[C@H](C3CCCCC3)C[C@H](OCc3ccc(CO)cc3)O2)CC1 | -21.2 | 18.1

Carrying on.
Compound | OX1R antag-1 | OX1R antag-2
Cc1cccc(NC(=O)c2ccc3nsnc3c2)c1C | -3.6 | 34.9
Cc1sc2nc(-c3ccc(Br)cc3)oc(=O)c2c1C | -9.5 | 1.9
COc1cc(/C=N/NC(=O)CNC(=O)c2ccccc2)ccc1OC(=O)c1cccs1 | -6.4 | 48.6
CC1(O)C(=O)C=C2C=C(c3ccsc3)OC=C2C1=O (stereo not given) | -7.6 | 22.2
Cc1cc(C)nc(NNS(=O)(=O)c2ccc(F)c(Cl)c2)n1 | -5.0 | 35.7
OC(COc1ccccc1)CN(Cc1ccccc1)CC(O)COc1ccccc1 (stereo not given) | -10.2 | 40.1
CCOc1ccc2[nH]c(=O)c(C(c3nnnn3Cc3ccco3)N3CCN(C)CC3)cc2c1 (stereo not given) | -16.0 | 8.7
CCN1CCCC1CNC(=O)c1cc(NC(C)=O)c(N(C)C)cc1OC (stereo not given) | -14.6 | 17.0
COC(=O)c1ccc(-n2cncn2)c([N+](=O)[O-])c1 | -7.2 | 24.9
CCn1c(O)c2ccc(C(=O)N=NC(=O)c3cccnc3)cc2c1O | -2.3 | 52.5*
CSc1nncc(-c2ccc(F)c(F)c2)n1 | -19.2 | 24.5
c1cncc(-c2nnc(-c3cccs3)o2)c1 | -16.9 | 18.0
c1ccc(-c2nc(N3CCOCC3)cc(N3CCOCC3)n2)cc1 | -29.7 | 6.7
CCOC(=O)N1CCN(C(=O)/C=C/c2ccc(OC)c(OC)c2)CC1 | -10.0 | -9.1
COc1ccc(OC)c(S(=O)(=O)N2CCC(C(=O)NC3CCCCC3)CC2)c1 | -10.6 | 6.1
COc1ccccc1C1=NOC(C)(c2sc(-c3ccccc3)nc2C)C1 (stereo not given) | -24.3 | 11.2
CCN(CC)CCCOC(=O)c1ccc(OC)cc1O | -7.8 | 10.4
O=[N+]([O-])c1ccccc1/C=N/NC1=NCCN1 | 3.0 | 19.6
COc1ccccc1-c1nnc(SCC(=O)O)n1-c1ccc(C)cc1 | 0.2 | 19.7
COc1cc(C(=O)Nc2c(C(=O)N3CCOCC3)oc3ccccc23)cc(OC)c1OC | -37.3 | -1.8
Cc1ccc(OCCC(=O)Nc2ccc(F)c(F)c2)cc1 | -1.8 | 15.4
COc1ccc(CN2CCN(Cc3cccc4nonc34)CC2CCO)c(C)c1C (stereo not given) | -45.2 | 18.6
Cc1oc2cc3oc(=O)c(CC(=O)O)c(C)c3cc2c1-c1ccccc1 | -5.9 | 17.4
COc1ccccc1/C=C/C(=O)OCCN1CCOCC1 | -15.5 | -9.7

Screens as filed in PubChem BioAssay.
